Bioassay records (PubChem)
MgrA-DNA mod: alters Staphylococcus aureus MgrA binding to DNA; fluorescence polarization; inhibition, %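 (about 10 µg/mL by stock and volumes)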; hit rate 0.13% among 84,000; AID 602314;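 active = above 50% in either of two replicates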;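 note: 0% = protein plus DNA without compound and 100% = DNA alone without protein; higher means less MgrA bound to DNA so lower polarization; one replicate is shown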
S aureus helic: blocks Staphylococcus aureus DNA helicase; AID 485395; inhibition, %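 (tested at about 80 µM)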; hit rate 0.05% among 120,000; purified S. aureus helicase, fluorescence unwinding assay; about half of the hits fall short of the stated cut;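 active = both duplicates at 50% or more, or one of them with a favoured structure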;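 note: 0% = mean of negative control wells and 100% = mean of positive control wells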
* hit, by the source's call; i = inactive; nt = no result given; & = joins results of further samples. These rows are one share of the data, so the mix of outcomes need not match the whole.

SMILES | MgrA-DNA mod | S aureus helic
O=C(Nc1csc(-c2cccs2)n1)Nc1ccc(F)cc1F | -0.7 | nt
O=C(CSc1nc2ccccc2c(=O)[nH]1)NCc1ccco1 | nt | 5.0
CCN=C1SC(CC(=O)Nc2sc3c(c2C(=O)OCC)CCCC3)C(=O)N1CC (centres undefined) | 2.2 | 9.0
N#C/C(=C(/O)CSc1n[nH]c(=O)[nH]c1=O)c1nc2ccccc2[nH]1 | nt | -5.0
CC1CCCCN1C(=O)c1cccc(C(=O)N2CCCCC2C)c1 (centres undefined) | -0.8 | 15.0
Cn1c(SCC(=O)NN)nc2ccccc21 | nt | 1.0
Cc1nc2c(cnn2C(C)C)c(C)c1CCC(=O)OC(C)C(=O)Nc1ccc(C(N)=O)cc1 (centres undefined) | nt | 15.0
O=C(Nc1ccc(F)cc1)c1cc2cc(Cl)ccc2[nH]1 | -0.1 | nt
CSCCN1C(=O)NC2(CCC(C)CC2)C1=O (centres undefined) | nt | 8.0
Cc1ccccc1NC(=O)C(N)=S | nt | 16.0
CC(=O)N(/C=C1\Sc2ccccc2C1=O)N1CCCCC1 | nt | 6.0
O=C(CSc1n[nH]c(=O)n1Cc1ccccc1)Nc1ccc2c(c1)CCC2 | nt | -6.0
COc1cc(OC)cc(C(=O)Nc2ccccc2N2CCN(C)CC2)c1 | 22.9 | 17.0
O=C(Nc1ccccc1C(F)(F)F)c1cc2nc(-c3ccco3)cc(C(F)(F)F)n2n1 | -0.4 | nt
C=CCn1c(SCC(=O)O)nnc1-c1ccccc1 | 0.6 | nt
COc1ccccc1CNC(=O)Cn1c(=O)cnc2ccccc21 | nt | -2.0
CN(CC(=O)N1CCN(c2ccccc2)CC1)S(=O)(=O)c1cc2c(cc1Cl)NC(=O)CO2 | nt | 10.0
COc1ccc(C2c3c(oc4ccccc4c3=O)C(=O)N2Cc2ccncc2)cc1 (centres undefined) | nt | -2.0
CCOC(=O)c1ccc(N=Cc2ccc3c(c2)OCO3)cc1 | 7.0 | -1.0
CC(C)n1c(C(=O)OC(C(=O)NCc2ccco2)c2cccnc2)cc2sccc21 (centres undefined) | 2.5 | 1.0
CCN(CC)C(C(=O)NC1CCCCC1)c1ccc(OC)cc1 (centres undefined) | nt | -26.0
COc1ccccc1NC(=O)CCCN1C(=O)/C(=C/c2cccc(Br)c2)SC1=S | -1.8 | nt
COC(=O)C1C(c2ccc(OC)cc2)C(C(=O)OC)S(=O)(=O)CS1(=O)=O (centres undefined) | -0.1 | nt
CCC(CC)NC(=O)Cc1ccc(Cl)cc1 | -0.2 | 11.0
c1nc(N2CCCCC2)c2[nH]cnc2n1 | nt | 11.0

Single records, as listed above. Order of screens: MgrA-DNA mod	S aureus helic
O=C(Nc1ccc(F)cc1)c1cc2cc(Cl)ccc2[nH]1 reads -0.1	nt
CSCCN1C(=O)NC2(CCC(C)CC2)C1=O (centres undefined) reads nt	8.0

The list continues:
SMILES | MgrA-DNA mod | S aureus helic
Cc1cc(C)c(C)c(S)c1C | nt | 2.0
N#CC1=C(N)Oc2c(c(-c3ccccc3)nn2-c2ccccc2)C1c1ccc(Cl)cc1 (centres undefined) | 3.7 | 9.0
Cc1cc(C)n2nc(COc3ccccc3)nc2n1 | nt | -13.0
c1ccc(C2=Nc3ccccc3Oc3ccccc32)cc1 | -1.4 | 10.0
FC(F)(F)c1cc(-c2cc(C(F)(F)F)cc(C(F)(F)F)c2)cc(C(F)(F)F)c1 | -2.3 | nt
CN(Cc1ccc(OC(F)F)cc1)C(=O)c1ccc(S(C)(=O)=O)cc1 | nt | -7.0
CC1=CC(=O)N(CCc2c[nH]c3ccc(OCc4ccccc4)cc23)C1=O | -1.6 | 6.0
COc1ccc(NC(=O)C2C3CCCCC32)cc1 (centres undefined) | 2.6 | 0.0
Cn1nccc1NC(=O)Nc1cc(Cl)cc(Cl)c1 | -0.1 | nt
Cc1c(OC(=O)c2ccco2)ccc2c1CCCC2 | 0.3 | 16.0
O=C(NC(=S)N1CCCc2ccccc21)c1ccco1 | nt | -4.0
CC(C)c1cc(NC(=O)COC(=O)c2ccccc2-n2cnnn2)on1 | nt | 9.0
O=C(Nc1nccs1)c1ccc(S(=O)(=O)N2CCCCC2)cc1 | nt | 8.0
CCc1cccc(CC)c1N(C)C(=O)c1cnccc1C(F)(F)F | -3.0 | nt
COc1cc(C2/C(=C(\O)c3ccccc3)C(=O)C(=O)N2CCC(=O)O)ccc1O (centres undefined) | -0.8 | 11.0
O=C(c1cn(-c2ccccc2)nc1-c1ccncc1)N1CCCCC1 | nt | -27.0
COc1cccc(-n2c(SCC(=O)Nc3nccs3)nc3c([nH]c4ccccc43)c2=O)c1 | nt | 9.0
CCOC(=O)c1c(C)[nH]c(C(=O)C(C)Sc2nnnn2-c2cc(C)ccc2OC)c1C (centres undefined) | nt | -4.0
CC1Cc2c([nH]c3ccccc23)C(=O)N1 (centres undefined) | 0.5 | 21.0
COc1ccc(OCCSc2nnc3sc4ccccc4n23)cc1 | nt | -1.0
Cc1cccc(NC(=O)c2ccccc2NC(=O)CN2CSCC2=O)c1 | nt | -6.0
CCN(CC)c1nc(N2CCOCC2)nc(N2CC(=O)N(c3ccccc3)C2=N)n1 | nt | 2.0
CCCOc1ccc(C(=O)c2nc3c(n2O)CCCCC3)cc1 | nt | 35.0
CCn1c2ccccc2c2cc(NC(=O)C(C)OC(=O)c3cccn3C)ccc21 (centres undefined) | nt | -19.0
CCN(CC(=O)NCc1ccc(F)cc1)C(=O)C1CC1C (centres undefined) | nt | 6.0
SMILES | MgrA-DNA mod | S aureus helic
N#C/C(=C\c1cn(CC(=O)N2CCCC2)c2ccccc12)C(=O)NCc1ccc2c(c1)OCO2 | -1.4 | 4.0
COC(=O)Nc1cc(C)n(-c2ccccc2)n1 | -1.2 | nt
N#Cc1cccc(OCC(=O)c2ccc[nH]2)c1 | nt | -12.0
Cc1cnc(C(=O)Nc2ccc(N3CCN(C(=O)OC(C)(C)C)CC3)cc2)cn1 | -0.1 | 9.0
O=C(NCC1COc2ccccc2O1)c1nn(-c2ccccc2)c(=O)c2ccccc12 (centres undefined) | nt | -6.0
O=S1(=O)CCC(S(=O)(=O)NC2CCCC2)C1 (centres undefined) | nt | 21.0
COc1ccc2cc(C(=O)Nc3ccccc3)c(=Nc3cccc(C#N)c3)oc2c1 | 1.9 | nt
CC1(C)C=C(c2c[nH]c(C3=CC(C)(C)NC(C)(C)C3)c2)CC(C)(C)N1 | -1.6 | 6.0
COC(=O)c1ccccc1NC(=O)C1COc2ccccc2O1 (centres undefined) | nt | 8.0
N#Cc1ccc(-c2ccccc2F)cc1 | 0.3 | nt
CC1=C(C#N)C(c2ccc(-c3ccccc3C(F)(F)F)o2)C(C#N)=C(C)N1 | -2.5 | nt
COc1ccc(CCN2C(=O)C(C)SC2c2ccc(C#N)cc2)cc1OC (centres undefined) | nt | -14.0
c1ccc(CN2CCN(Cc3cn[nH]c3-c3ccccc3)CC2)cc1 | 2.8 | nt
O=C(NCCNc1ccc(C(F)(F)F)cc1[N+](=O)[O-])c1ccccc1F | -2.1 | nt
CN1CCCN(C(=O)c2csc3ccccc23)CC1 | -2.8 | 21.0
Cc1cc(/C=N/O)nc(=O)[nH]1 | -0.2 | 4.0
N#Cc1ccc(/C=N/c2oc(-c3ccco3)c(-c3ccco3)c2C#N)cc1 | nt | -30.0
COc1ccc(C2C(C(=O)OCCOc3ccccc3)=C(C)NC3=C2C(=O)CC(C)(C)C3)c(OC)c1 (centres undefined) | 1.8 | nt
CCOc1ccc(C2Oc3ccccc3C3CC(c4cccc5ccccc45)=NN32)cc1 (centres undefined) | 0.0 | nt
N#CCSC1=CC(=O)CC(c2ccccc2)S1 (centres undefined) | -3.8 | nt
CCOC(=O)C1=C(CC)Nc2ccccc2N=C1N=Cc1c(O)n(CC)c(=S)n(CC)c1=O | nt | 8.0
Cc1ccccc1CSc1nnc(Cn2c(=O)sc3ccccc32)n1C | nt | 8.0
O=c1ccc(OCCOc2ccccc2)nn1-c1ccccc1 | -1.2 | 12.0
FC(F)(F)c1cccc(N2CCN(C(=S)Nc3ccc4c(c3)OCO4)CC2)c1 | 0.4 | 13.0
COc1ccc(C)cc1S(=O)(=O)N1CCN(C(=O)c2ncoc2-c2cccc(C)c2)CC1 | 4.4 | 8.0

Copied from the list.
`COC(=O)Nc1cc(C)n(-c2ccccc2)n1` | MgrA-DNA mod: -1.2
`FC(F)(F)c1cccc(N2CCN(C(=S)Nc3ccc4c(c3)OCO4)CC2)c1` | MgrA-DNA mod: 0.4
`N#CCSC1=CC(=O)CC(c2ccccc2)S1` (centres undefined) | MgrA-DNA mod: -3.8
`CC1=C(C#N)C(c2ccc(-c3ccccc3C(F)(F)F)o2)C(C#N)=C(C)N1` | MgrA-DNA mod: -2.5

Taken from above (six entries):
SMILES | MgrA-DNA mod | S aureus helic
N#CCSC1=CC(=O)CC(c2ccccc2)S1 (centres undefined) | -3.8 | nt
CCOC(=O)C1=C(CC)Nc2ccccc2N=C1N=Cc1c(O)n(CC)c(=S)n(CC)c1=O | nt | 8.0
Cc1ccccc1CSc1nnc(Cn2c(=O)sc3ccccc32)n1C | nt | 8.0
O=c1ccc(OCCOc2ccccc2)nn1-c1ccccc1 | -1.2 | 12.0
FC(F)(F)c1cccc(N2CCN(C(=S)Nc3ccc4c(c3)OCO4)CC2)c1 | 0.4 | 13.0
COc1ccc(C)cc1S(=O)(=O)N1CCN(C(=O)c2ncoc2-c2cccc(C)c2)CC1 | 4.4 | 8.0

Further entries follow.
SMILES | MgrA-DNA mod | S aureus helic
COC(=O)/C(=C(/O)CSc1nnc(Cc2csc(C)n2)o1)c1nc2ccccc2[nH]1 | nt | 4.0
N#CC1=C(N)Sc2oc(-c3ccccc3)cc(=O)c2C1c1ccccc1Cl (centres undefined) | 2.1 | 0.0
O=C(O)CSCC(=O)N1CCCC1 | 11.3 | 5.0
COc1ccc(CNC(Cc2ccccc2)c2ccccc2)c(OC)c1C (centres undefined) | -1.4 | 12.0
Clc1ccc(N=NN2CCOCC2)cc1 | -0.6 | nt
COC(=O)Nc1c(-c2ccccc2)nc2ccccn12 | nt | 15.0
O=C(O)CCC(=O)Nc1cccc(C(=O)c2ccccc2)c1 | 0.3 | 10.0
O=C1c2ccccc2C(=O)N1CN(CCCn1ccnc1)CN1C(=O)c2ccccc2C1=O | nt | 0.0
O=C(CSCc1ccccc1)Nc1nccs1 | 1.8 | 3.0
N#C/C(=C\c1ccc(N2Cc3ccccc3C2)cc1)C(=O)NCc1ccco1 | nt | -40.0
N#CCCn1c(=S)n(CCC#N)c2ccccc21 | -0.8 | -6.0
O=C(Cc1ccccc1)NC(=S)Nc1ccccc1O | 1.8 | -12.0
Cc1ccccc1C(=O)Nc1sc2c(c1C(N)=O)CCC2 | -0.8 | 3.0
COc1ccc2oc(=N)c(-c3nc4ccccc4[nH]3)cc2c1 | 3.7 | 7.0
Cc1nc(SC(C)C(=O)O)[nH]c(=O)c1Oc1ccccc1 (centres undefined) | -1.4 | 10.0
O=C(O)c1cccc2c1C(=O)N(C1CCCC1)C2 | -1.3 | -2.0
CCOC(=O)C1=C(C)N(Cc2ccccc2)C(=O)NC1c1c(OCC)ccc2ccccc12 (centres undefined) | 0.4 | nt
C(=C\c1ccccc1)/CNCC1CCCO1 (centres undefined) | -2.3 | 8.0
COc1ccc(C(=O)CCC(=O)N2CCN(c3ccccc3)CC2)cc1 | nt | -2.0
CC(C)CSc1nnc2n(-c3ccccc3)c(=O)c3ccccc3n12 | nt | -1.0
NC(=O)C[n+]1ccn2c(NC3CCCCC3)c(-c3ccccc3O)nc2c1 | 18.4 | i
COc1ccc(-c2nc3ccccc3c(C(N)=O)c2C)cc1 | 0.7 | 12.0
N/C(=N/OC(=O)C1CCc2ccccc2O1)c1ccc(Cl)cc1 (centres undefined) | 0.4 | nt
O=C1C(Cc2ccccc2)NC(=S)N1CC1CCCO1 (centres undefined) | nt | -2.0
COC(=O)c1sccc1OCc1nnc(-c2ccc(OC)cc2)o1 | nt | -38.0
SMILES | MgrA-DNA mod | S aureus helic
Nc1nccc(-c2ccc(NC(=O)Nc3ccccc3)cc2)n1 | 0.5 | nt
Cc1ccc(C)n1-c1ccc(C(=O)NNS(=O)(=O)c2ccccc2)cc1 | 4.0 | nt
CCOC(=O)c1cc(CC)sc1NC(=O)Cn1c(=O)oc2ccccc21 | nt | -12.0
COc1ccc2c(=O)c(-c3ccc(Br)cc3)coc2c1 | nt | -3.0
O=C(O)CCCN1C(=O)S/C(=C\C=C\c2ccccc2)C1=O | nt | 7.0
CC1CCCCN1C(=O)COC(=O)c1ccc2ccccc2n1 (centres undefined) | nt | 10.0
Cc1cc2occ(CC(=O)OCC(=O)c3ccc4c(c3)NC(=O)CO4)c2cc1C | nt | -16.0
O=S(=O)(Nc1ccc2ccccc2n1)c1ccc2c(c1)CCO2 | 0.0 | nt
O=C(O)CN1C(=O)/C(=C\c2ccc(-c3ccc(I)cc3)o2)SC1=S | 4.3 | nt
CCOC(=O)c1sc(N)c(C#N)c1COC(=O)Cc1n[nH]c(=O)c2ccccc12 | nt | -243.0
COC(=O)Nc1nc2ccc(C(=O)c3ccccc3)cc2[nH]1 | -5.7&-0.3&3.0 | 0.0
CCCCN(C)S(=O)(=O)c1ccc(-c2cc(C(F)(F)F)no2)s1 | nt | 11.0
COc1ccc(CCN(Cc2cc3cc(C)ccc3[nH]c2=O)C(=O)N2CCCC2)cc1OC | 2.0 | 1.0
CC1CCCCC1NC(=O)c1ccc2ccccc2n1 (centres undefined) | nt | 8.0
COC(=O)c1nn(-c2ccccc2)nc1C | -1.0 | nt
O=C(Nc1c[nH]c2ccccc12)NC1CCCC1 | nt | 8.0
CC1(O)CS(=O)(=O)CC1(C)O (centres undefined) | nt | -1.0
CC(=O)Nc1ccc(Br)cc1-c1nc2ccccc2[nH]c1=O | nt | 5.0
CC(C)(C)N=Cc1nc(-c2ccccc2)oc1O | 0.8 | 1.0
Cc1ccc2oc(-c3ccc(Cl)cc3)cc(=O)c2c1 | -1.1 | 3.0
CN(Cc1cccnc1)C(=O)CNC(=O)c1ccc(Cl)cc1Cl | nt | -9.0
O=S1(=O)CC2SC(=S)N(c3cccc(Br)c3)C2C1 (centres undefined) | nt | 16.0
